# ALR H2O2 inh: inhibitors of human sulfhydryl oxidase ALR. AID 485317. P55789. inhibition, % (test concentration not listed). purified ALR, DTT oxidation, H2O2 HRP-luminol luminescence. 290,000 compounds, 3.8% hits;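 active = mean and each replicate at 75% or more; inconclusive = only one of the two met; inactive = neither met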;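 also: stock transfer was 7.5 nL into about 7.5 µL; 0% = neutral wells and 100% = wells with inactivated enzyme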
# Ecoli rRNA inh: inhibits bacterial ribosomal RNA function over humanized ribosomes; GFP signal change (wild-type ribosome), % (concentration not given with the values); E. coli WT GFP vs humanized-ribosome RFP mutants, fluorescence, 24 h; hits give low values; DMSO median 0, no signal -100; 350,000 compounds, 1.6% hits;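 active = significant combined selectivity score with lowered wild-type GFP, culture density cut under 30%, mutant RFP and density less affected; inactive = any of these conditions unmet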; also: one replicate is shown; some compounds called inactive have numbers as strong as hits
# UCH37 inh: human UCH37 deubiquitinating enzyme inhibition. purified proteasome/UCH37, Ub-AMC cleavage fluorescence. inhibition, % (concentration not given with the values). 330,000 compounds, 0.33% hits. AID 588478;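 active = mean of two replicates above 20%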;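 also: 0% = compound-free wells with enzyme and 100% = wells lacking proteasome; stock transfer was 100 nL into about 20 µL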
# Target sequence (Q9Y5K5 whole entry, looked up): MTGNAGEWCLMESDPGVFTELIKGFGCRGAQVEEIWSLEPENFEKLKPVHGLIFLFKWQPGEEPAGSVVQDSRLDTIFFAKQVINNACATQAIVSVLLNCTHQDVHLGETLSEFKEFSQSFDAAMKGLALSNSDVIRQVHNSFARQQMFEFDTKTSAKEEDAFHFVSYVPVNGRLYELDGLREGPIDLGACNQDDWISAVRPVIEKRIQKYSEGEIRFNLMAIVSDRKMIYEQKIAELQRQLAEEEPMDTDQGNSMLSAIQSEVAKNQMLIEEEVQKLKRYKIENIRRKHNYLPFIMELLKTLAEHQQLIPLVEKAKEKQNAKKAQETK
#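 Assay system: Proteasome-bound UCH37. Buffer or medium: pH 7.4 Tris-HCl (50 mM) with ovalbumin, ATP-MgCl2, DTT. Incubation: 30 min preincubation with enzyme, 25 min cleavage at room temperature. Measured by: fluorescence, ex 355 nm, em 460 nm. Read-out basis: percent inhibition. Control set: wells without proteasome as full block, compound-free enzyme plus substrate as uninhibited.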
# E coli growth: blocks Escherichia coli growth | OD600, 23 h; hits give low values | OD600 absorbance (test concentration not listed) | 330,000 compounds, 0.21% hits | AID 1053175;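 active = OD600 absorbance below the run mean of sample wells minus 3.6 SD, in any replicate, cut at about 0.56 in these data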;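 also: stock transfer was 300 nL into about 60 µL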
# Beta2AR agonist: human beta-2 adrenergic receptor agonism by FAP. 340,000 compounds, 0.43% hits. response, % (no concentration beside the values). P07550. Am2.2-beta2AR cells, FAP receptor internalization, flow cytometry; reference of the scale not given here;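 active = response above a set limit, near 3 SD of response in nonfluorescent compounds, cut at about 42% in these data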;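 also: stock transfer was 100 nL into about 11 µL; a reference agonist was the positive control; negative values mostly stem from fluorescent compounds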
# FGF22 binding: FGF22 (human) thermal shift binding | recombinant FGF22 thermal shift, SYPRO orange fluorescence; percent of sucrose octasulfate shift, DMSO zero | 340,000 compounds, 1.5% hits | Q9HCT0 | calls only at 9.99 µM;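 active = melting point raised past a set limit in the mean and every replicate; inconclusive = no clear call; three in four hits are not shown here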
# Target sequence (Q9HCT0 whole entry, looked up): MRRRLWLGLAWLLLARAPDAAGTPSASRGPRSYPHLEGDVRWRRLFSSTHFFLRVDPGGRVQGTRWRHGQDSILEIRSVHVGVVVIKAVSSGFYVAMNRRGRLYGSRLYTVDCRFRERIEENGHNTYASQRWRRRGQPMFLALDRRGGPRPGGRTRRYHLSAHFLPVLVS
# HNF4A DNA FP: change in binding of human HNF4 alpha to DNA; activity change, % at 10 µM; P41235; 360,000 compounds, 0.3% hits; HNF4a-FITC DNA binding, fluorescence polarization, 1 h; in the data active = activity change above about 30%, passing the limit was not always enough;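 also: controls were the assay level and a saturating level of protein; the project sought stronger binding though the title names inhibitors; some compounds called inactive have numbers as strong as hits; positive values seem to mean higher polarization but the record does not say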
# Target sequence (P41235 whole entry, looked up): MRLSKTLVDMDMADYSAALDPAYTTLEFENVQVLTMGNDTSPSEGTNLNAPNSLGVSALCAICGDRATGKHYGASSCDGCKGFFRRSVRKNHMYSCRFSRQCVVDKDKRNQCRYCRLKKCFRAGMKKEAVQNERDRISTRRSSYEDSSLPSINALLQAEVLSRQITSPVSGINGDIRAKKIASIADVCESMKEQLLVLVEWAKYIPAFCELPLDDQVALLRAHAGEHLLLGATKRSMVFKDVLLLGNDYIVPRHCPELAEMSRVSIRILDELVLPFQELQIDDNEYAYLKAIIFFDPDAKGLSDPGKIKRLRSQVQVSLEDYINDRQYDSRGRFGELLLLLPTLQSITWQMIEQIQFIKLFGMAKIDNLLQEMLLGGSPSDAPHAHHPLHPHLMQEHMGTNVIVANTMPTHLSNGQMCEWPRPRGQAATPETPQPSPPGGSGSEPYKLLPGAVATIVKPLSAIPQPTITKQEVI
# Ecoli rRNA inh OD600: recorded beside Ecoli rRNA inh, whose call it bears; OD600 change, %; measured here: OD600 growth;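 optical density of the mix in the first replicate; 0 = DMSO median and -100 = no signal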
# Ecoli rRNA inh RFP: second read-out of Ecoli rRNA inh, no call of its own (marks repeat the call); RFP signal change, %; measured here: RFP humanized mutant strains;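 first replicate; 0 = DMSO median and -100 = no signal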
# Starred values were filed as active, the others as inactive; i = inactive; ? = inconclusive; · = not tested or not shown; & = joins results of further samples.
# Start of the listing, in advance:
ALR H2O2 inh	Ecoli rRNA inh	Ecoli rRNA inh OD600	Ecoli rRNA inh RFP	UCH37 inh	E coli growth	Beta2AR agonist	FGF22 binding	HNF4A DNA FP	compound
·	-8	-6	-1.8	-28	0.71	96*	i	7.4	COc1ccc2c(c1)c1ccc3c(c1n2C)C(=O)C=CC3=O
-3	1	-1	-4.0	2.3	0.64	-5	i	1.6	Cc1nc(NCCc2cnc[nH]2)c2oc3ccccc3c2n1
·	5	15	-5.7	3.7	0.72	-1	i	-0.6	Nc1c(Cl)cc2c(c1Br)Cc1ccccc1-2
0	1	-5	-1.6	-0.1	0.66	7	i	1.7	O=C(Nc1nccs1)c1cccnc1Cl
-26	·	·	·	0.1	0.68	1	·	1.9	COC(=O)CCN1CCC(C(N)=O)CC1
-2	15	6	-6.7	2.1	0.69	-6	i	1.4	CC(NC(=O)c1cccnc1)C(c1ccccc1)N1CCN(C)CC1 (stereo unspecified)
8	·	·	·	1.0	0.64	-1	i	2.5	CN(C(=O)Nc1ccc(C(C)(C)C)cc1)C1CCCCC1
0	-10	-13	-13	0.4	·	-7	i	0.7	O=C(NC1CC1)C1=C[C@H](c2ccc(Br)cc2)C[C@H](OCc2ccc(CO)cc2)O1
·	14	5	-1.5	·	·	1	·	-0.9	O=C(O)c1ccc(/C=N\Nc2ccccn2)cc1
7	-2	-8	-3.1	0.2	0.65	-9	i	1.4	C=C(C)CSc1[nH]c(=O)cc(C)c1C#N

# The list itself, from the start:
ALR H2O2 inh	Ecoli rRNA inh	Ecoli rRNA inh OD600	Ecoli rRNA inh RFP	UCH37 inh	E coli growth	Beta2AR agonist	FGF22 binding	HNF4A DNA FP	compound
·	-8	-6	-1.8	-28	0.71	96*	i	7.4	COc1ccc2c(c1)c1ccc3c(c1n2C)C(=O)C=CC3=O
-3	1	-1	-4.0	2.3	0.64	-5	i	1.6	Cc1nc(NCCc2cnc[nH]2)c2oc3ccccc3c2n1
·	5	15	-5.7	3.7	0.72	-1	i	-0.6	Nc1c(Cl)cc2c(c1Br)Cc1ccccc1-2
0	1	-5	-1.6	-0.1	0.66	7	i	1.7	O=C(Nc1nccs1)c1cccnc1Cl
-26	·	·	·	0.1	0.68	1	·	1.9	COC(=O)CCN1CCC(C(N)=O)CC1
-2	15	6	-6.7	2.1	0.69	-6	i	1.4	CC(NC(=O)c1cccnc1)C(c1ccccc1)N1CCN(C)CC1 (stereo unspecified)
8	·	·	·	1.0	0.64	-1	i	2.5	CN(C(=O)Nc1ccc(C(C)(C)C)cc1)C1CCCCC1
0	-10	-13	-13	0.4	·	-7	i	0.7	O=C(NC1CC1)C1=C[C@H](c2ccc(Br)cc2)C[C@H](OCc2ccc(CO)cc2)O1
·	14	5	-1.5	·	·	1	·	-0.9	O=C(O)c1ccc(/C=N\Nc2ccccn2)cc1
7	-2	-8	-3.1	0.2	0.65	-9	i	1.4	C=C(C)CSc1[nH]c(=O)cc(C)c1C#N
23	·	·	·	-43	0.71	9	·	7.2	Cc1ccc(-n2c(C)cc(/C=C3/C(=N)N4C(c5ccccc5)=CSC4=NC3=O)c2C)cc1
-5	-27	-26	-3.4	1.0	0.67	-4	i	3.7	O=C(c1cccc(S(=O)(=O)N2CCCC2)c1)N1CCCc2ccccc21
-3	·	·	·	0.6	0.7	2	·	-2.3	N#Cc1cccc(NC(=O)CN2NS(=O)(=O)c3ccccc3C2=O)c1
·	14	7	5.0	·	·	·	i	3.5	CCC(c1nc2ccccc2[nH]1)n1c(-c2cccnc2)nc2ccccc21 (stereo unspecified)
-7	·	·	·	-0.6	·	-2	·	-1.1	C#CCOCCOCCOCCNc1nc(N2CCOCC2)nc(N2CCN(C(=O)[C@H](CCC(=O)O)n3cc(C(N)Cc4ccc(O)cc4)nn3)CC2)n1 (stereo partly specified)
?	·	·	·	2.5	0.69	-2	·	9.1	O=C(Nc1sccc1C(=O)NCc1ccco1)c1cccnc1
-18	·	·	·	1.0	0.68	14	·	2.9	CCOC(=O)c1[nH]c(C)c(C(=O)c2cc(F)ccc2F)c1C
-2	22	19	2.9	4.7	0.69	10	i	-4.3	CCN1CCN(CC(=O)Nc2c(OC)cccc2OC)CC1
-21	·	·	·	2.0	0.74	4	·	1.7	COc1ccc(CN2CCCC(C(=O)N3CCCC3)C2)cc1 (stereo unspecified)
·	10	11	2.6	3.5	0.7	-5	i	-3.1	Cc1c(C(=O)N2CCOCC2)sc(NC(=O)C(C)C)c1C#N
-2	12	7	6.8	5.0	0.67	3	i	-1.0	C#CCn1cc(/C=C2\NC(=O)NC2=O)c2ccccc21
·	1	4	4.1	-448	0.68	16	i	-0.8	Cc1c2c(n3c(nc4ccccc43)c1C#N)N(CCN1CCOCC1)CC2
1	·	·	·	0.4	0.65	-3	·	2.4	O=C(NNC(=O)C1CC1c1ccccc1)Nc1cccc(Cl)c1 (stereo unspecified)
-3	-15	-62	8.1	1.3	0.71	-4	i	-2.9	Cc1csc(NC(=O)C(C)Oc2ccc(Cl)cc2C)n1 (stereo unspecified)
-8	8	5	2.2	0.6	0.62	11	i	-1.1	O=C(c1ccc(Cl)c(S(=O)(=O)N2CCOCC2)c1)N1CCOCC1
·	-5	-1	7.8	-35	0.68	8	i	-1.8	COc1ccc(NC(=O)c2cc(-c3ccc4c(c3)OCO4)on2)cc1
·	3	1	0.0	4.4	0.72	1	i	1.0	CN(C)C(=O)CCc1ccc2c3c([nH]c2c1)[C@]1(CCC2CCCC2)[C@@H](C(=O)N2CCOCC2)C[C@H](CC(=O)NCc2cccc(C(F)(F)F)c2)C(=O)N1CC3
-13	3	10	5.2	4.3	0.7	2	i	-2.5	O=[N+]([O-])c1ccc(-c2nc(Nc3ccc(O)cc3)c3ccccc3n2)cc1
·	-9	-9	12	4.2	0.65	42	i	-49	N#C/C(=C\c1cccc([N+](=O)[O-])c1)C(=O)NCc1ccc(Cl)cc1
-19	18	16	1.0	1.7	0.71	6	i	7.7	Cc1c(N=NC2=C(O)CCCC2=O)c(=O)n(-c2ccccc2)n1C
-11	1	2	-2.0	-0.6	0.71	-3	i	-4.7	CCOC(=O)CC(N)c1cccc([N+](=O)[O-])c1 (stereo unspecified)
-7	0	10	13	-3.8	0.73	1	i	-2.9	Cc1cc(C)c2nc(-c3ccccn3)cc(C(=O)Nn3cnnc3)c2c1
·	3	4	-1.3	·	·	4	·	2.6	CN(CCc1ccccc1)C(=O)c1ccc(NC(=O)Cc2ccc(NC(=O)C3CCN(C(=O)c4ccccc4)CC3)cc2)cc1
0	-18	-23	3.7	3.9	0.69	0	i	1.7	Cc1ccc(Cl)cc1NC(=O)COC(=O)Cn1cnc2c1c(=O)n(C)c(=O)n2C
-3	3&4	8&12	0.7&-10	0.2	0.76	-1	i	0.8	C[C@H](CO)N1C[C@H](C)[C@@H](CN(C)Cc2ccncc2)Oc2c(NC(=O)c3ccncc3)cccc2C1=O
3	·	·	·	6.0	0.69	-3	·	0.0	CC1(C(=O)NCCc2c[nH]c3ccccc23)C=CC2(CCCCC2)N1C(=O)c1ccccc1 (stereo unspecified)
6	0	-9	6.4	4.1	0.71	-3	i	-10	O=C(CCc1nnc2ccc(NCc3ccco3)nn12)Nc1cc(F)ccc1F
29	-3	-5	-0.3	5.7	0.75	9	i	9.1	COc1cc(C(c2sc3nc(C)nn3c2O)N2CCc3ccccc3C2)cc(OC)c1OC (stereo unspecified)
?	16	19	-0.8	2.1	0.65	-4	i	13	N#CC1=C(N)Oc2cc(N)ccc2C1c1cccc(F)c1 (stereo unspecified)
·	13	13	4.5	5.2	0.54	11	i	3.2	O=S1(=O)CCC(NC(=S)SCc2ccccc2Br)C1 (stereo unspecified)
-8	·	·	·	1.3	0.72	8	·	6.2	COc1ccc2nc(NC(=O)C3CCCN(S(=O)(=O)c4cccc5nsnc45)C3)sc2c1 (stereo unspecified)
-1	5	2	-1.4	1.6	0.68	0	i	2.2	O=C(CN1CSCC1=O)N1CCN(S(=O)(=O)c2ccc(Cl)cc2)CC1
·	-6	-14	40	·	·	·	i	4.0	CC(=O)Nc1cc(-c2ccc(N3CCN(C)CC3)cc2)cn2c(-c3ccc(F)cc3)cnc12
·	·	·	·	-2.7	0.77	1	·	3.7	COC(=O)c1ccc(OCC(O)CN2C(=O)NC(C)(C)C2=O)cc1 (stereo unspecified)
2	4	-11	-0.3	-0.4	0.71	3	i	2.3	CCN(CC)c1ccc(C(=O)NN)cc1
6	·	·	·	4.9	0.68	·	·	·	Cc1ccc(C(=O)C2=C(O)C(=O)N(c3ncccn3)C2c2ccc(Br)cc2)o1 (stereo unspecified)
37	·	·	·	·	·	-2	·	-1.4	COc1cccc(/C=N/n2c(C)nc3ccccc3c2=O)c1O
3	·	·	·	1.4	0.67	2	·	-1.0	Cc1cc(C)nc(NS(=O)(=O)c2ccc(NC(=O)c3cccc(N4C(=O)CCC4=O)c3)cc2)n1
21	-20	-36	-2.8	1.9	0.67	3	i	-2.4	Cc1cccc(C(=O)NNC(=O)c2c(-c3ccccc3Cl)noc2C)c1O
-3	·	·	·	-0.3	0.63	12	·	-0.3	CC(NC(=O)C(Cc1ccccc1)N1C(=O)C2C3CCC(C3)C2C1=O)c1ccccc1 (stereo unspecified)
-8	4&4	9&-3	-0.1&-0.7	1.4	·	-8	i	1.2	C[C@@H]1CN([C@@H](C)CO)C(=O)c2cc(NC(=O)Nc3ccc4c(c3)OCO4)ccc2O[C@H]1CN(C)S(=O)(=O)c1cn(C)cn1
-25	6	-2	-11	7.9	0.69	-12	i	-2.3	Cc1sc2nc(SCC(=O)N3CCN(CCO)CC3)n(-c3ccccc3)c(=O)c2c1C
2	-2	12	-4.4	-3.1	0.69	-5	i	1.7	CC1CCCCN1CCCNc1ccc(C(CC(N)=O)NC(=O)c2ccccc2)cc1[N+](=O)[O-] (stereo unspecified)
-4	·	·	·	7.2	0.71	-4	·	2.1	O=C(NCCC1=CCCCC1)NC12CC3CC(CC(C3)C1)C2
51	1	4	-2.6	10	0.58	0	i	-7.1	C=CCOc1cccc(C2/C(=C(/O)c3ccc4c(c3)CC(C)O4)C(=O)C(=O)N2CCN2CCOCC2)c1 (stereo unspecified)
-1	·	·	·	4.0	0.7	6	·	2.0	COc1ccc(CCn2c(C(C)C)nc3c(c(=O)c4ccccc4n3C)c2=O)cc1
-3	·	·	·	·	·	8	i	-4.1	S=c1[nH]nc(-c2ccncc2)n1/N=C/c1cn(-c2ccccc2)nc1-c1ccc(Cl)cc1
1	5	6	0.8	2.7	0.63	4	i	-1.0	C=CCn1c(SCC(=O)NCC2CCCO2)nnc1-c1ccncc1 (stereo unspecified)
4	·	·	·	0.3	0.7	0	·	-0.5	O=C(CN(c1ccc(F)cc1)S(=O)(=O)c1ccc2c(c1)OCCO2)Nc1cccnc1
-4	6	10	1.3	-1.6	0.7	-4	i	1.9	COc1ccc(Br)cc1C(=O)Nc1cccc(C)c1C

# Only part of the results is shown; rates above refer to the full screens.
